GIRK2 activ: activators of human GIRK2 potassium channels | HEK293-GIRK2 thallium flux, Thallos fluorescence | calls only for hits at 25 µM | hit rate 0.05% among 63,000;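 active = among the strongest 0.2% of first-round signals and kept after retests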;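 note: first round at about 10 µM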
Target sequence (P48051 whole entry, looked up): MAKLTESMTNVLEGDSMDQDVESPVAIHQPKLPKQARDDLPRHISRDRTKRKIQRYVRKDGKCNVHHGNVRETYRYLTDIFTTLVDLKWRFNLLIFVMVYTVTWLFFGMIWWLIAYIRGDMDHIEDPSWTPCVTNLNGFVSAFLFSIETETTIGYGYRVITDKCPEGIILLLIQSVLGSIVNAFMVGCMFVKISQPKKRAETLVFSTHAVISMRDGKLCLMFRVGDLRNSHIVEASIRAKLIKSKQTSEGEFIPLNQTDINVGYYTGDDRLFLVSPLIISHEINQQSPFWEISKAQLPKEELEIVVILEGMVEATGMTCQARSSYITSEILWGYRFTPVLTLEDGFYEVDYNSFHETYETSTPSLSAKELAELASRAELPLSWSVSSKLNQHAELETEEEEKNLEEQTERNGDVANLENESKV
Calls only; i = inactive. A portion of the library; the hit share may differ from the screen's.

The first 16 entries as a preview:
GIRK2 activ	structure
i	Cc1nc(N2CCN(C(=O)Nc3ccc(C)c(Cl)c3)CC2)cc(-n2cccc2)n1
i	Cc1cc(=O)n2c(-c3cccc(NC(=O)Nc4ccc(F)cc4)c3)csc2n1
i	COc1ccc2sc(N(CCN3CCOCC3)C(=O)c3cccc(SC)c3)nc2c1
i	COc1cccc(CSc2nc(CC(=O)NCc3cccs3)cc(=O)[nH]2)c1
i	Cc1cc(N2CCN(S(=O)(=O)Cc3cc(F)ccc3F)CC2)ncn1
i	COc1ccc(C(=O)Nc2oc3ccccc3c(=O)c2-c2ccc(OC)cc2)cc1
i	CC(=O)N1CCN(C(=O)C2CC2c2ccccc2)CC1 (configuration not stated)
i	O=C(CSC1=NNC2C3CC(c4ccccc4)NN3C=CN12)Nc1ccccc1Cl (configuration not stated)
i	CCOCC(=O)N1CCN(C2=NN=C(c3ccccc3)CS2)CC1
i	COC(=O)CCc1cc2c(C)cc(=O)oc2cc1O
i	Cc1cc(C(=O)Nc2nc3c(s2)CN(S(=O)(=O)c2cccnc2)CC3)no1
i	COc1ccc(Cl)cc1NC(=O)c1ccc(-n2ccnc2C)nn1
i	Cc1cc(C(=O)Nc2ccc(C)c(N3CCCC3=O)c2)no1
i	CCOC(=O)c1ccccc1NC(=O)Cn1nc2c(Oc3ccccc3)nccn2c1=O
i	O=C(CCCn1cccc1)Nc1ccc2c(c1)OCO2
i	COc1ccc(-c2cc(SCC(=O)N3CCN(c4ccccc4)CC3)ncn2)cc1

Main list (from the top)
GIRK2 activ	structure
i	Cc1nc(N2CCN(C(=O)Nc3ccc(C)c(Cl)c3)CC2)cc(-n2cccc2)n1
i	Cc1cc(=O)n2c(-c3cccc(NC(=O)Nc4ccc(F)cc4)c3)csc2n1
i	COc1ccc2sc(N(CCN3CCOCC3)C(=O)c3cccc(SC)c3)nc2c1
i	COc1cccc(CSc2nc(CC(=O)NCc3cccs3)cc(=O)[nH]2)c1
i	Cc1cc(N2CCN(S(=O)(=O)Cc3cc(F)ccc3F)CC2)ncn1
i	COc1ccc(C(=O)Nc2oc3ccccc3c(=O)c2-c2ccc(OC)cc2)cc1
i	CC(=O)N1CCN(C(=O)C2CC2c2ccccc2)CC1 (configuration not stated)
i	O=C(CSC1=NNC2C3CC(c4ccccc4)NN3C=CN12)Nc1ccccc1Cl (configuration not stated)
i	CCOCC(=O)N1CCN(C2=NN=C(c3ccccc3)CS2)CC1
i	COC(=O)CCc1cc2c(C)cc(=O)oc2cc1O
i	Cc1cc(C(=O)Nc2nc3c(s2)CN(S(=O)(=O)c2cccnc2)CC3)no1
i	COc1ccc(Cl)cc1NC(=O)c1ccc(-n2ccnc2C)nn1
i	Cc1cc(C(=O)Nc2ccc(C)c(N3CCCC3=O)c2)no1
i	CCOC(=O)c1ccccc1NC(=O)Cn1nc2c(Oc3ccccc3)nccn2c1=O
i	O=C(CCCn1cccc1)Nc1ccc2c(c1)OCO2
i	COc1ccc(-c2cc(SCC(=O)N3CCN(c4ccccc4)CC3)ncn2)cc1
i	O=C(Nc1nccs1)C1COCC(=O)N1Cc1ccccc1 (configuration not stated)
i	O=C(CSc1nnc(-c2ccccc2)o1)NCc1ccco1
i	COc1ccc(Cl)cc1NC(=O)CSc1nnc(CCc2nc3ccccc3[nH]2)o1
i	CCc1ccc(OCCCCn2c(CO)nc3ccccc32)cc1
i	N#Cc1ccc(C(=O)N(CCN2CCOCC2)c2nc3c(F)cc(F)cc3s2)cc1
i	O=C(CN1CC(c2nc(C3CC3)no2)C1)NCc1ccco1
i	CSc1cccc(NC(=O)CN2C(=O)CC(c3ccccc3)=Nc3ccccc32)c1
i	CCCn1c(C(=O)O)cc2c(=O)n3ccccc3nc21
i	O=C(Cc1csc(Nc2ncccn2)n1)NCc1ccco1
i	O=C(Nc1cccc(Br)c1)C1Nc2ccccc2S(=O)(=O)N1 (configuration not stated)
i	COc1cccc(CNC(=O)c2ccc(Oc3nccnc3N3CCC(C)CC3)cc2)c1
i	Cc1cn2c3c(=O)n(Cc4ccccc4Cl)c(=O)n(C)c3nc2n1C(C)C
i	COC(=O)c1cc(OC)c(OC)cc1NC(=O)c1cc2cccc(OC)c2o1
i	O=C(Cc1ccc(Cl)cc1)Nc1ccc2c(c1)CCCN2C(=O)c1ccco1
i	Cc1ccc2oc(C(=O)N3CCCc4ccccc43)cc(=O)c2c1
i	CCCCNC(=O)c1nc(-c2nc(-c3ccncc3)no2)cs1
i	COc1ccccc1NC(=O)Cn1ncn2nc(-c3ccc(C)cc3)cc2c1=O
i	CCOc1ccccc1N=Cc1c(C)c(C#N)c2[nH]c3ccccc3n2c1=O
i	Cc1ccc2nc(N3CC(C(=O)N4CCN(S(C)(=O)=O)CC4)C3)sc2c1
i	Cc1nc(-c2ccccc2Cl)sc1CNC(=O)Cc1c(C)noc1C
i	CC(O)(CNC(=O)c1cnc2ccccc2n1)c1ccco1 (configuration not stated)
i	COc1ccc(OCc2noc(CNC(=O)c3ccc(S(=O)(=O)N(C)C)cc3)n2)cc1
i	Cc1ccc(S(=O)(=O)c2nc(S(=O)(=O)c3ccccc3)sc2N2CCN(C)CC2)cc1
i	COCCN(Cc1ccoc1)C(=O)CSCc1ccccc1
i	Cc1cc(C)nc(Nc2nc(C(=O)NCC3CCCO3)cs2)n1 (configuration not stated)
i	O=C(c1cc(-c2ccccc2)on1)N(Cc1ccsc1)Cc1ccco1
i	Cc1cc(C)n(CC2CCN(S(=O)(=O)c3ccc(Br)s3)CC2)n1
i	O=C(NCc1cc(-c2cccs2)n(C2CCCC2)n1)C1CC(=O)N(c2ccccc2)C1 (configuration not stated)
i	Cc1nc(C)c(-c2nnc(NC(=O)c3ccc(=O)[nH]n3)o2)s1
i	COc1ccccc1NC(=O)CN1CCC(c2nn(C)c(=O)n2-c2ccccc2)CC1
i	O=C(NCCN1CCOCC1)C1CCN(c2nc3c(-c4ccccc4F)csc3c(=O)[nH]2)CC1
i	O=C(CN1CCC(c2nnc(C(F)(F)F)o2)CC1)Nc1cccnc1
i	Cc1cc(OCC(=O)Nc2c(C)cccc2C)nc(N2CCCCCC2)n1
i	OCc1nc2cc(Cl)c(Cl)cc2[nH]1

Further entries follow.
GIRK2 activ	structure
i	CCCc1nc2ccccc2n1Cc1ccccc1F
i	Cn1c(=O)[nH]c(=O)c2c1nc1n(-c3ccccc3)c(-c3ccc(F)cc3)cn21
i	Cn1c(=O)[nH]c(=O)c2c1nc(NCCC(=O)O)n2Cc1ccccc1
i	O=C(NCC1CCN(C(=O)c2ccoc2)CC1)c1cnccn1
i	COC(=O)c1ccc(C(=O)NCC(O)C2CCCCC2)cc1 (configuration not stated)
i	Cc1nnc(C2CCN(CC(=O)N3CCN(c4ccc(Cl)cc4)CC3)CC2)s1
i	Cc1c(C(=O)NCC2(c3ccc(F)cc3)CCOCC2)cnn1-c1ccccc1
i	FC(F)(F)c1cccc(/C=C/c2nn3c(-c4ccco4)nnc3s2)c1
i	COc1ccccc1-c1coc2cc(OC(=O)c3ccc([N+](=O)[O-])cc3)ccc2c1=O
i	CCOC(=O)c1ccccc1NC(=O)CSc1nc2c(sc(=S)n2-c2ccccc2)c(=O)[nH]1
i	Cc1cc(C(O)CCNC(=O)Nc2ccccc2)c(C)o1 (configuration not stated)
i	COc1ccc(CCNC(=O)c2sc(-c3nnn(-c4ccc(F)cc4)c3C)nc2C)cc1OC
i	CCOc1ccc(-c2noc(Cn3nc(-c4ccc(C(C)C)cc4)ccc3=O)n2)cc1OC
i	Cc1ccc(NC(=O)CCCNS(=O)(=O)c2ccc(Cl)cc2)cc1
i	Cc1nc(-c2ccccc2Cl)sc1CNC(=O)/C=C/c1ccc2c(c1)OCO2
i	COc1ccc(C)cc1Nc1nc(C(=O)NCC2CCCO2)cs1 (configuration not stated)
i	O=C(Nc1nnc(COc2cccc3ccccc23)o1)c1ccc2c(c1)OCO2
i	COC(=O)c1cc(OCc2cccc(Cl)c2)c2cc(OC)c(OC)cc2n1
i	O=C(NCCNc1ccc(Nc2ccncc2)nn1)Nc1ccccc1
i	COc1ccc(-c2cc3c(SCC(=O)Nc4ccc(OC)c(Cl)c4)nccn3n2)cc1
i	Cc1noc(CNC(=O)Cn2cnc3ccccc3c2=O)n1
i	Cc1noc(-c2cccn3c(=O)n(Cc4nc(-c5ccccc5)oc4C)nc23)n1
i	Cc1ccccc1N1CCn2c1nc1c2c(=O)n(CC(=O)O)c(=O)n1C
i	CC(C)c1nc2c(c(=O)c3ccccc3n2C)c(=O)n1-c1ccccc1
i	CCn1c(=O)c2c(nc3n(-c4ccccc4OC)c(C)c(C)n23)n(C)c1=O
i	CS(=O)(=O)N1CCN=C1SCc1ccc(Cl)cc1
i	CC(C)(C)C1CCc2c(sc3nc(CCC(=O)N4CCCC4)[nH]c(=O)c23)C1 (configuration not stated)
i	COc1ccccc1NC(=O)C1C(C)Nc2ncnn2C1c1ccc(OC)c(OC)c1 (configuration not stated)
i	Cc1ccc(/C=C/S(=O)(=O)NCc2nn(C)c(=O)c3ccccc23)cc1
i	O=C(CN1C(=O)CCC1=O)N1CCN(C(=O)C2CC2c2ccc(F)cc2)CC1 (configuration not stated)
i	CN1C(=O)COc2ccc(-c3csc(NC(=O)c4ccncc4)n3)cc21
i	COc1ccc(C(=O)/C=C/c2ccc(Cl)cc2)cc1
i	COc1ccc(C2c3cccn3CCN2S(=O)(=O)c2cc(F)ccc2F)cc1OC (configuration not stated)
i	O=C(NCc1ccc(F)cc1)N1CCN(c2nc3ccc(F)cc3s2)CC1
i	Cc1noc(C)c1CCC(=O)N1CCN(CCn2cccn2)CC1
i	O=C(Nc1cccs1)N1CCCC(c2nnc(Cc3ccc(F)cc3)o2)C1 (configuration not stated)
i	COC(CNS(=O)(=O)CCNC(=O)c1ccc2c(c1)OCO2)OC
i	Cc1cc(C)n(-c2cc(NC(=O)C3c4ccccc4Oc4ccccc43)ncn2)n1
i	COc1ccc(-c2noc(-c3c(SC)[nH]n4c(=O)cc(CCl)nc34)n2)cc1OC
i	COc1ccc(-n2c(-c3ccccc3)cn3c4c(=O)n(CC(N)=O)c(=O)n(C)c4nc23)cc1
i	O=c1c2ccccc2oc2nc(-c3cccs3)n(CCc3ccccc3)c(=O)c12
i	COc1cccc(COc2coc(C(=O)Nc3ccc(OC)c(OC)c3)cc2=O)c1
i	COc1ccccc1-c1nnc(NC(=O)c2ccco2)o1
i	CN(C(=O)CCCS(=O)(=O)Cc1ccccc1)c1ccccc1
i	COc1ccc(Cc2nnc(SCC(=O)Nc3cc(OC)ccc3OC)n2N)cc1
i	CCSc1nnc(NC(=O)CCc2csc(NC(=O)NC3CCCCC3)n2)s1
i	COc1cccc(NC(=O)c2ccc(S(=O)(=O)N(C)Cc3ccccc3)cc2)c1
i	COC(=O)c1sccc1S(=O)(=O)NCC(c1cn(C)c2ccccc12)N(C)C (configuration not stated)
i	COC(=O)c1ccc(NC(=O)CN2CCC(c3nc(-c4cccc(F)c4)no3)CC2)cc1
i	Cc1ccccc1N1CC(c2nc3ccccc3n2CCOc2ccccc2)CC1=O (configuration not stated)

Reprinted from the part before: 2 entries; new compounds follow.
GIRK2 activ	structure
i	COC(=O)c1ccc(NC(=O)CN2CCC(c3nc(-c4cccc(F)c4)no3)CC2)cc1
i	Cc1ccccc1N1CC(c2nc3ccccc3n2CCOc2ccccc2)CC1=O (configuration not stated)
i	N#Cc1nc(-c2ccc(COc3ccccc3)o2)oc1NCc1ccco1
i	O=C1C2N=NN(Cc3nc(-c4ccccc4Cl)no3)C2C(=O)N1c1ccc2c(c1)OCO2 (configuration not stated)
i	COc1ccc2c(C)c(C(=O)NCCn3ncccc3=O)oc2c1
i	CCOc1ccc(CC(=O)NCCC(O)c2ccc3c(c2)OCO3)cc1 (configuration not stated)
i	C=CCn1c(SCc2csc(C)n2)nc2scc(-c3ccc(C)o3)c2c1=O
i	Cc1ccc(-n2nnc3c(N4CCN(C(=O)/C=C\c5ccc6c(c5)OCO6)CC4)ncnc32)cc1
i	COc1cc2c(cc1OC)CN(S(=O)(=O)CCCNC(=O)C1CCCCC1)CC2
i	Cc1cccc(CS(=O)(=O)NC(C)Cc2ccco2)c1 (configuration not stated)
i	COc1ccc(CC(=O)N2CCc3cc(S(=O)(=O)NC4CCCC4)ccc32)cc1OC
i	CC(=O)NS(=O)(=O)c1ccc(N)cc1
i	O=S(=O)(c1ccccc1)c1nc(-c2ccccc2)oc1NCCCN1CCOCC1
i	Nc1nc2c(ncn2COC(CO)CO)c(=O)[nH]1
i	CC(C)c1cc(=O)[nH]c(-n2nc(C3CC3)cc2NC(=O)COc2cccc3c2OC(C)(C)C3)n1
i	NS(=O)(=O)c1ccc(NC(=O)C2CCN(S(=O)(=O)c3ccc(F)cc3)CC2)cc1
i	O=C(c1ccc(F)cc1Cl)N(Cc1ccsc1)CC(F)(F)F
i	COC(=O)c1ccc(S(=O)(=O)NCc2cc(C)oc2C)cc1
i	O=C(CN1C(=O)C2(SCC(=O)N2c2ccc(F)cc2)c2ccccc21)Nc1ccccc1 (configuration not stated)
i	COc1ccc(CNC(=O)CCCn2c(=S)[nH]c3cc4c(cc3c2=O)OCO4)cc1
i	COC(=O)CCn1c(=O)c2c(nc3n(-c4cccc(C)c4)c(C)c(C)n23)n(C)c1=O
i	COc1ccc(-c2cc(N3CCN(C(=O)c4ccccc4C(F)(F)F)CC3)ncn2)cc1
i	CC(=O)N1CCc2ccc(NC(=O)c3ccc(S(=O)(=O)N(C)C)cc3)cc21
i	COc1ccccc1-c1noc(Cn2ccn3nc(-c4ccc(C)c(C)c4)cc3c2=O)n1
i	O=C(c1cccnc1)N1CCC(CNS(=O)(=O)c2ccc(F)c(Cl)c2)CC1
i	COc1cc(Br)cc2cc(C(=O)Nc3ccc(F)cc3)c(=O)oc12
i	Cc1nnsc1C(=O)N1CCC(Oc2nc3c(F)cc(F)cc3s2)CC1
i	CCOc1ccc(NC(=O)C2CCN(c3ccc(-c4cccnc4)nn3)CC2)cc1
i	CC(=O)CC(c1ccccc1)c1c(O)c2ccccc2oc1=O (configuration not stated)
i	O=C(Nc1cccs1)N1CCC(Oc2ccc(C(F)(F)F)cn2)CC1
i	Cc1ccc2c(c1)N(C(=O)Cn1cnc3c(-c4ccc(Cl)cc4)csc3c1=O)CCO2
i	Cc1cc(N2C(=O)c3oc4ccc(Br)cc4c(=O)c3C2c2ccccc2)no1 (configuration not stated)
i	O=C(Nc1nc(C(=O)NCC(F)(F)F)co1)c1ccccc1
